Bioassay records (PubChem BioAssay)
D2 potentiator = human D2 receptor positive allosteric modulation | P14416 | DiscoveRx D2 beta-arrestin cells, luminescence, 90 min; 100% = 57 uM dopamine signal | potentiation, % (concentration not given with the values) | actives 0.23% (n = 360,000) | AID 624464; active = potentiation of 50% or more; inconclusive = 30% to 50%; inactive = 30% or less;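 note: compound concentration not given in the record; tested on top of an EC20 dose of dopamine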
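PathHunter D2 cells, attached overnight at 37 deg C, received compound in DMSO plus dopamine at EC20 (50 nM final) for 90 min at 37 deg C. Beta-arrestin recruitment was read as luminescence after 1 h with detection reagent at ambient temperature.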
Menin-MLL FL inh = displaces fluorescein MLL peptide from human menin; Fluorescence polarization, fluorescein-MLL peptide displacement from menin; FP activity change, % at 61.4 µM; 290,000 tested, under 10 active; AID 1766; inconclusive = falling polarisation curve, or a change in total fluorescence; inactive = total fluorescence flat and polarisation flat or rising; no compound was filed as active; the % refers to the polarisation; negative = inhibition;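 note: % of control where 0% means no effect; inhibitors lower the polarisation; unlabelled MLL peptide was the positive control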
TRPV1 PAM = enhances activation of the human vanilloid receptor TRPV1; actives 0.02% (n = 320,000); Q8NER1; potentiation, % at 8.33 µM; TRPV1-expressing cells, Fluo-8 calcium influx, capsaicin EC20 potentiation; host cell line not named in the record; control for the full effect not named in the record; active means potentiation above 80%; inconclusive means 30% to 80%; inactive means below 30%; note: 0% is about no effect
Target sequence (Q8NER1 whole entry, looked up): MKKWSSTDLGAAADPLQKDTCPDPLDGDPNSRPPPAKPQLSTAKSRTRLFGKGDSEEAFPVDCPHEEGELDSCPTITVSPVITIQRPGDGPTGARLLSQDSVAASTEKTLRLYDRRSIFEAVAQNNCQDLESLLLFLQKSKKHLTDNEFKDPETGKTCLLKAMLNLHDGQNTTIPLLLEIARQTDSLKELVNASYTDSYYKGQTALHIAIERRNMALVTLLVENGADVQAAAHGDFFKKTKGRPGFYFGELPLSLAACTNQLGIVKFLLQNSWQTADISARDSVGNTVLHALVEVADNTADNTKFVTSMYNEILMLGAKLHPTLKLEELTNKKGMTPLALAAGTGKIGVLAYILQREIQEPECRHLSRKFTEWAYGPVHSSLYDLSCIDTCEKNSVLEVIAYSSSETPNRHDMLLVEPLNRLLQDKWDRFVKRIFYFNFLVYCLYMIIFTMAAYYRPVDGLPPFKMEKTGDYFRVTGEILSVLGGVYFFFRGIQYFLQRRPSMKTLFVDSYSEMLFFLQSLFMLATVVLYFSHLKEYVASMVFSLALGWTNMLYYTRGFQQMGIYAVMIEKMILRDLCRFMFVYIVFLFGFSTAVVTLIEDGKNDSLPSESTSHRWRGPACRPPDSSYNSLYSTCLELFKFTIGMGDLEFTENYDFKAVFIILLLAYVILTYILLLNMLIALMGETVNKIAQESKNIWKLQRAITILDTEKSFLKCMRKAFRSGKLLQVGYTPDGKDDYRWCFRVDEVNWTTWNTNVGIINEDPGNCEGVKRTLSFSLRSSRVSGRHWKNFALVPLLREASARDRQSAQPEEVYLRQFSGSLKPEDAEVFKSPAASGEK
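TRPV1-expressing cells were cultured overnight at 35.5C and loaded with Fluo-8 calcium dye for 40 to 90 min at room temperature. After a 10 s baseline, compound was added and calcium influx was read kinetically for 3 min (ex 480/em 520 nm).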
Sfp PPTase inh = blocks B. subtilis Sfp PPTase activity. AID 1490. actives 3.5% (n = 310,000). Q9F4F7. Biochemical Sfp PPTase activity, qHTS. Potency, µM, for inactives: max response, negative = inhibition, most hits filed as inhibitors; active = well fitted inhibition curve with a large enough effect; inconclusive = small, poorly fitted or top-dose-only effect, or another doubt; inactive = no such curve, though single readings can be large or run the other way;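 note: the enzyme is Sfp with the accession as filed and its product quenches rhodamine fluorescence; potency is the fitted concentration of half-maximal effect; 0% = enzyme reaction without inhibitor and -100% = no enzyme wells; top concentration of the series not given in the record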
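Fluorescence-quenching assay: 15 nM Sfp-PPTase preincubated 15 min at room temperature with compound, then 5 uM rhodamine-CoA and 12.5 uM BHQ-2-labelled YbbR peptide added. Fluorescence (ex 525/em 598 nm) read at start and after 30 min; difference gives rate.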
gsp antag = gsp mutant antagonism | gsp-mutant cells, cAMP HTRF, 30 min; control for the full effect not named in the record | Potency, µM (highest dose often 76.9 µM), without a hit: at the top dose activity change, negative = inhibition, usual class: inhibitors | actives 0.4% (n = 340,000); active = falling curve of any shape with a large fitted effect; inconclusive = falling curve, mostly with a smaller effect; inactive = flat or rising curve; cell line not stated here;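 note: intracellular cAMP measured with PDE inhibitor Ro 20-1724 present during compound exposure; potency is the fitted concentration of half-maximal effect; % is set by controls: 0 for no effect and ±100 for the full control effect; nearly all actives have a fitted effect of over 65% in size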
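G418-selected cells were plated in DMEM/10% FBS for 16-24 h at 37C, then treated with compounds plus the PDE inhibitor […] (300 uM solution added) for 30 min at 37C. Intracellular cAMP was measured by HTRF after 30 min lysis at room temperature.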
gsp agonist = gsp mutant agonism | gsp mutant cells, cAMP HTRF, 30 min; control for the full effect not named in the record | actives 0.13% (n = 340,000) | AID 624287 | Potency, µM (series often up to 76.9 µM), inactives show top-dose activation (cAMP increase), actives largely listed as activators; active = well fitted activation curve with a large enough effect; inconclusive = small, poorly fitted or top-dose-only effect, or another doubt; inactive = no such curve, though single readings can be large or run the other way; cell line not stated here;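 note: phosphodiesterase inhibitor Ro 20-1724 added with compounds to block cAMP breakdown; potency is the fitted concentration of half-maximal effect; nearly all actives have a fitted effect of over 60% in size; about a fifth of the inactives were tested at one dose only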
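Cells in DMEM/10% FBS with G418 were pretreated with compounds in DMSO plus […] (300 uM stock) for 30 min at 37C. cAMP was measured by HTRF (cAMP-d2 plus anti-cAMP antibody-K) after 30 min at room temperature.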
ClpP mod = qHTS Assay for Activators of ClpP; ATP-dependent Clp protease proteolytic subunit (Bacillus subtilis (strain 168)), P80244; purified B. subtilis ClpP, FRET peptide cleavage, 20 min; Potency, µM (doses to about 57.5 µM), for inactives: at the top dose activity change, negative = active; actives 1.9% (n = 340,000); active = well fitted falling curve with a large enough effect; inconclusive = small, poorly fitted or top-dose-only effect; inactive = no such curve, though single readings can be large or run the other way; note: potency is the fitted concentration of half-maximal effect; the source files actives as falling curves though it sought activators and does not explain the sign; nearly all actives have a fitted effect of over 65% in size; many hits overshoot -100%
Target sequence (P80244 whole entry, looked up): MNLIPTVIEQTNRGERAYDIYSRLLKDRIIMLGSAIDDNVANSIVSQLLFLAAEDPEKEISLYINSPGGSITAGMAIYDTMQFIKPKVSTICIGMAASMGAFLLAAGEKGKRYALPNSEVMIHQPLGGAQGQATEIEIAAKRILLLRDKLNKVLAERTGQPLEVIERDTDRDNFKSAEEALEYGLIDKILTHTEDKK
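FRET quenching reversal measured ClpP activation: 10 microg/mL B. subtilis ClpP at pH 8 with the FRET-FV decapeptide, read at 430 nm after 320 nm excitation. The 20-min minus 0-min signal was scaled between DMSO/no-enzyme wells and ADEP (5.8 microM final).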
Starred values were filed as active, the others as inactive; ? = inconclusive; · = not tested or not shown; [ ] = dose if it differs, or a comment.

SMILES	D2 potentiator	Menin-MLL FL inh	TRPV1 PAM	Sfp PPTase inh	gsp antag	gsp agonist	ClpP mod
COc1ccc(C(=O)c2cnc(C(C)C)n2C)cc1	2.5	5.8	7.5	18.3%	-3.5%	-0.8%	-2.5%
COc1ccc(C(C)C)cc1S(=O)(=O)NCc1ccccn1	-0.3	-1.1	21.9	-8.8%	0.6%	-14.0%	-1.7%
Cn1cccc([N+](=O)[O-])c1=O	-15.8	·	·	·	·	-24.2%	-14.2%
O=C1CCC2(C(=O)O)Sc3ccccc3N12 (stereo unspecified)	-2.7	0.7	0.3	-10.4%	8.2%	23.4%	0.0%
CCC1CSC(Nc2ccc(C(=O)/C=C/c3ccc(Br)cc3)cc2)=N1 (stereo unspecified)	-3.5	-2.5	3.2	5.2%	0.1%	-11.1%	·
COCCn1c(SCC(=O)N(C(C)C)C(C)C)nnc1-c1cc2ccccc2cc1O	-11.7	4.7	-11.8	11.5%	-10.7%	-17.1%	-1.7%
Cn1c(=O)c(-[n+]2ccccc2)c([O-])c2ccccc21	-5.2	1.7	11.4	-17.2%	-0.3%	2.4%	0.8%
O=[N+]([O-])/C=C/c1cn(Cc2ccc(Cl)cc2)c2ccccc12	-14.4	3.2	9.6	-11.6%	16.8%	3.2%[15.4 µM]	-1.9%
CC(CC(=O)NC(C)c1ccc2c(c1)OCCO2)c1ccccc1 (stereo unspecified)	-26.6	3.0	-13.3	4.4%	3.3%	9.5%	2.5%
Cc1cccc(S(=O)(=O)C(C#N)c2nc3ccccc3nc2N2CC(C)OC(C)C2)c1 (stereo unspecified)	-16.9	?	10.3	13.2%	-37.0%	-33.4%[inhibitor]	-3.2%
Fc1ccccc1NC(=S)N1CCN(C/C=C/c2ccccc2)CC1	-31.6	0.3	-6.0	-2.4%	4.1%	-21.7%	-2.2%
COc1ccc(OC)c(S(=O)(=O)n2cnc3ccccc32)c1	1.7	-0.3	-3.5	12.8%	14.2%	0.6%	·
Cc1onc(C(=O)Nc2ccc3c(c2)OCO3)c1[N+](=O)[O-]	-13.0	·	-17.7	-1.6%	15.2%	?	1.8%
Cc1ccc(S(=O)(=O)N(CC(O)CN2C(=O)NC(C)(C)C2=O)c2ccccc2)cc1 (stereo unspecified)	-4.0	-0.7	-12.7	1.3%	2.1%	-0.4%	-6.8%
O=S(=O)(c1ccccc1)n1c(C(O)c2ccccn2)cc2ccccc21 (stereo unspecified)	0.8	0.9	5.0	23.4%	2.5%	-14.2%[15.4 µM]	2.2%
O=C1CCCCN1CCC(=O)N1CCCC(Nc2ccccc2)C1 (stereo unspecified)	-5.3	-1.0	7.0	8.9%	0.4%	8.8%	-3.5%
Cc1cc(NC(=O)CSCC(=O)Nc2cc(C(F)(F)F)ccc2N2CCCC2)no1	-18.9	·	4.8	·	-3.1%	10.5%	1.1%
Cc1ccc(OCC(=O)N/N=C/c2cccn2C)cc1	-28.1	2.9	25.8	4.4%	-3.8%	12.4%	-1.8%
O=C(N/N=C/c1ccc([N+](=O)[O-])o1)c1ccncc1	0.3	3.0	-6.4	-16.8%	15.0%	19.3%[15.4 µM]	·
CN1C(=O)c2ccccc2Cc2c(NCc3ccccc3)ncnc21	7.6	·	·	·	·	-29.1%	1.9%
CC(C)COC(=O)N1CCN(S(=O)(=O)c2ccc3c(c2)CCC3)CC1	-6.9	·	-15.0	·	7.4%	4.7%	1.4%
Cc1ccc(NC(=O)c2ccc(NCC3CCCO3)c([N+](=O)[O-])c2)cc1Cl (stereo unspecified)	-0.4	?	5.5	21.2%	-2.7%	-11.3%	-2.5%
Cc1cc(=O)oc2c3c(cc(OCC(=O)Nc4ccc(CCO)cc4)c12)OC(C)(C)CC3	-1.0	-5.3	-14.1	1.5%	1.1%	·	4.7%
CC(NC(=O)c1ccccc1F)C(=O)O (stereo unspecified)	16.2	-1.3	2.9	8.1%	-5.9%	4.4%	-0.4%
CCc1nnc(NC(=O)C2CC(=O)N(c3ccc4c(c3)OCCO4)C2)s1 (stereo unspecified)	-30.6	0.6	-3.8	-2.9%	15.4%	28.9%	0.5%
O=C(COC(=O)c1ccccc1)Nc1ccc(Cl)cn1	-1.8	-1.9	-3.7	7.8%	16.0%	17.8%	·
CCN(CC)S(=O)(=O)c1ccc(N2CCOCC2)c(NC(=O)Cc2ccccc2F)c1	-8.6	2.9	-7.9	11.8%	-2.2%	1.4%[15.4 µM]	-0.5%
COc1cc(S(=O)(=O)NCC2CCCO2)ccc1Br (stereo unspecified)	2.1	2.0	-9.6	10.8%	-2.2%	0.0%	-4.8%
Cc1ccc(NS(=O)(=O)c2cccs2)cc1S(=O)(=O)N1CCCCCC1	-2.9	-3.8	2.0	16.4%	-3.8%	-11.5%	·
CSc1nc2nc3c(c(=O)n2[nH]1)CN(Cc1ccccc1)CC3	-11.1	-2.1	17.1	8.5%	15.8%	-38.2%[inhibitor]	-8.0%
CCS(=O)(=O)N1CCC(C(=O)Nc2cccc(F)c2)CC1	-1.5	1.8	-6.1	-10.4%	4.5%	0.2%	-0.6%
Fc1ccc(NC(=S)N2CCCC2)cc1Cl	-8.2	3.4	-8.1	-13.4%	7.7%	19.5%	-2.1%
C=CC[C@@H](CC(=O)OC(C)(C)C)C(=O)OC[C@@H]1CCCN1C(=O)[C@@H](CC=C)CC(=O)N[C@H](CO)Cc1ccccc1	-2.6	·	·	·	-7.6%	1.1%	0.6%
OCCC1CN(CC#Cc2ccccc2)CCN1C1CCCC1 (stereo unspecified)	-29.1	-2.4	-14.3	5.5%	-1.3%	1.1%	-0.2%
CCOc1ccc(OCC)c(NC(=O)CN(C)S(=O)(=O)c2cnc[nH]2)c1	8.5	-1.2	-2.8	6.1%	8.7%	-83.4%[inhibitor]	0.8%
CCOC(=O)N1CCN(C(=O)c2ccc(Cl)c(S(=O)(=O)N3CCCC3)c2)CC1	1.3	·	-7.2	22.7%	-0.6%	9.5%[15.4 µM]	-1.7%
Cc1cccc(-c2nnc(C(C)Nc3cccc(C(=O)NC4CC4)c3)o2)c1 (stereo unspecified)	5.8	·	·	·	·	-34.0%[inhibitor]	-10.4%
O=c1c2c3c(sc2nc2n1CCC2)CCCC3	-8.2	-0.8	-17.6	-10.1%	1.5%	-17.8%	0.7%
O=C(Nc1ccc(CN2CCOCC2)cc1)c1ccc(N2CCCC2)c([N+](=O)[O-])c1	-32.6	-0.8	-6.0	2.5%	·	0.8%[15.4 µM]	·
CCO[C@@H]1OC(C(=O)NCc2nc3ccccc3[nH]2)=C[C@H](c2csc3ccccc23)[C@H]1CCCO	-13.3	0.4	29.1	-5.7%	-25.5%	·	-3.8%

Individual results from the list.
For D2 potentiator, OCCC1CN(CC#Cc2ccccc2)CCN1C1CCCC1 (stereo unspecified) reads -29.1
For ClpP mod, C=CC[C@@H](CC(=O)OC(C)(C)C)C(=O)OC[C@@H]1CCCN1C(=O)[C@@H](CC=C)CC(=O)N[C@H](CO)Cc1ccccc1 reads 0.6%

Additional compounds
SMILES	D2 potentiator	Menin-MLL FL inh	TRPV1 PAM	Sfp PPTase inh	gsp antag	gsp agonist	ClpP mod
CCOC(=O)C1(CC2CC2)CCN(Cc2cn(C)c3ccccc23)CC1	-10.5	-3.1	-5.4	11.3%	9.2%	-25.8%	·
COc1ccc(OC)c(CCNC(=O)CC2(CC3=NS(=O)(=O)c4ccccc4N3)CCCC2)c1	-4.7	0.3	-2.2	5.5%	-22.1%	-2.9%	-0.3%
Cc1ccc(N2C(=O)c3ccccc3C2=O)cc1	-1.1	1.5	12.3	10.0%	11.2%	-12.5%[15.4 µM]	·
CCOC(=O)c1c(CSc2cccs2)n(C)c2cc(Br)c(O)c(CN(C)C)c12	-6.8	0.3	-5.7	-26.6%	-10.6%	3.1%	·
CCOc1ccccc1N1CCN(Cc2ccco2)CC1	-12.1	0.9	8.2	3.2%	11.1%	-1.7%	-0.4%
CCOc1ccccc1NC(=O)CSc1nnc2ccc(-c3cccnc3)nn12	-1.4	1.7	7.1	21.2%	7.0%	8.5%[15.4 µM]	·
COc1ccc(OC)c(NC(=O)c2ccc3c(c2)CCN3S(C)(=O)=O)c1	-2.3	-4.3	14.0	9.1%	-15.5%	1.6%	-2.5%
Cc1ccc2cc(CN(Cc3ccco3)S(=O)(=O)c3c(C)ccc4nsnc34)c(=O)[nH]c2c1	-6.3	5.5	4.0	15.8µM*	-18.0%	-17.1%	-12.5%
CC(=O)Nc1ccc(OCCC[n+]2cccc(C(=O)[O-])c2)cc1	-1.0	-4.1	-11.4	25.7%	7.1%	11.6%	·
c1ccc2sc(N3CCCN(Cc4nc(-c5cnccn5)no4)CC3)nc2c1	-0.7	4.0	10.9	6.5%	-3.3%	2.3%	·
CN(C)c1c(N)c(=O)oc2ccccc12	11.6	-0.8	-0.3	8.8%	1.6%	?	3.3%
Cc1ccccc1-n1nnnc1SCC(=O)NC1CC1	-4.5	·	·	·	6.6%	14.3%	·
COc1cccc(N(C(=O)Cn2nnc(-c3cccs3)n2)C(C(=O)NC(C)C)c2ccc(C)o2)c1 (stereo unspecified)	-1.3	5.0	0.7	20.2%	-4.3%	?	1.0%
O=C(COC(=O)Cc1cccc(C(F)(F)F)c1)NC(=O)NC1CCCC1	-7.4	·	·	·	3.9%	?	-3.8%
Cc1ccccc1-n1c(Cn2c(=O)sc3ccccc32)nnc1SCC(=O)N1CCCC1	-4.4	0.2	-8.3	-13.7%	6.7%	18.4%	-1.6%
O=C(COc1ccc(Br)cc1)NNC(=S)NCc1ccccc1	-11.5	1.2	-1.6	22.8%	-14.6%	12.4%[15.4 µM]	·
N#CC(=C(O)COC(=O)Cc1c[nH]c2ccccc12)c1nc2ccccc2[nH]1	-5.2	·	·	·	-14.0%	-14.8%	·
CC1(C)CC(NC(=O)c2cc(Cl)ccc2Cl)CC(C)(C)N1	-0.9	-1.3	3.3	15.9%	15.9%	-4.1%[15.4 µM]	-13.7%
O=C(NCCc1ccccc1)Nc1ccc(Cl)cc1	-14.5	4.4	-2.1	27.8%	9.0%	-2.2%	0.0%
COc1ccc(C(=O)NC2CCSc3ccccc32)cc1S(=O)(=O)N1CCOCC1 (stereo unspecified)	-1.8	·	14.1	·	11.0%	13.1%	0.9%
